# Vif TR-FRET – inhibitors of Vif binding to APOBEC3G peptide, primary screen, biochemical, TR-FRET, GST-Vif 1-94, biotin-A3G peptide, dose response retest (AID 1117319); TR-FRET GST-Vif / biotin-A3G peptide binding; higher % means a stronger effect; test concentration not given here; strong numbers were not always called active; inhibition, %, or IC50 in µM where a hit was titrated; hit rate 0.57% among 260,000;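 active = above the screen mean plus three standard deviations and confirmed in dose response; inconclusive = results disagree or hit not tested in dose response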;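 also: Vif residues 1-94 fused to GST binding biotinylated APOBEC3G peptide 110-148; 0% = full assay without inhibitor and 100% = GST in place of GST-Vif; retest series ran down from 100 µM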
# Calb FLC – affects C. albicans growth with fluconazole; growth inhibition, % (test concentration not listed); hit rate 0.57% among 300,000; C. albicans CaCi-2 (fluconazole-resistant clinical isolate) + fluconazole, Alamar Blue growth, 48 h; AID 1979;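 active = most replicates above 75%; inconclusive = exactly half above 75%; inactive = most below 75%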;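 also: all wells also contain fluconazole at 8 µg/ml as a sub-toxic cotreatment; 0% = median of DMSO wells and 100% = median of geldanamycin control wells; wells of about 8 µL received 7.5 nL stock; the first replicate is given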
# Beta2AR agonist – agonists of human beta-2 adrenergic receptor inducing internalization | hit rate 0.43% among 340,000 | AID 504454 | response, % (concentration not given with the values) | Am2.2-beta2AR cells, FAP receptor internalization, flow cytometry; reference of the scale not given here;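 active = response above a set limit, near 3 SD of response in nonfluorescent compounds, cut at about 42% in these data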;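 also: stock transfer was 100 nL into about 11 µL; a reference agonist was the positive control; negative values mostly stem from fluorescent compounds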
# Target sequence (P07550 whole entry, looked up): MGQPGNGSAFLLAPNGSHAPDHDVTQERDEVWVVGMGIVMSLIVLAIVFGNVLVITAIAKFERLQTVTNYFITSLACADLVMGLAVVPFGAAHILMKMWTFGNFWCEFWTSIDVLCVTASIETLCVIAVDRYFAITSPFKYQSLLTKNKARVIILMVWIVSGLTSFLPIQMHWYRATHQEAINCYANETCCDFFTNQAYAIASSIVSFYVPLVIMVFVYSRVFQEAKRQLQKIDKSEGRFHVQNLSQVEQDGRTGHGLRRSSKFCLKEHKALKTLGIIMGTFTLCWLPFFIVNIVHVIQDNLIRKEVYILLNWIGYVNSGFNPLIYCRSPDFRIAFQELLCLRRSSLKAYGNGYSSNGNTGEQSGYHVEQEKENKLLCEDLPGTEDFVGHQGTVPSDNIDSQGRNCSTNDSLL
# RanGTP-Impb inh – inhibitors of RanGTP-importin-beta interaction, primary screen, biochemical, FRET, CFP-Ran, YFP-importin-beta, homogeneous; cell-free CFP-Ran/YFP-importin-beta FRET ratio; inhibition, % (no concentration beside the values); AID 2216; hit rate 1.1% among 300,000;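 active = most replicates above 15%; inconclusive = exactly half above 15%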;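 also: 0% = DMSO wells and 100% = Ran loaded with GDP instead of GTP; wells of about 40 µL received 100 nL stock; the first replicate is given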
# HNF4A DNA FP – change in binding of human HNF4 alpha to DNA; activity change, % at 10 µM; P41235; AID 1224865; hit rate 0.3% among 360,000; HNF4a-FITC DNA binding, fluorescence polarization, 1 h; in the data active = activity change above about 30%, passing the limit was not always enough;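 also: controls were the assay level and a saturating level of protein; the project sought stronger binding though the title names inhibitors; some compounds called inactive have numbers as strong as hits; positive values seem to mean higher polarization but the record does not say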
# Target sequence (P41235 whole entry, looked up): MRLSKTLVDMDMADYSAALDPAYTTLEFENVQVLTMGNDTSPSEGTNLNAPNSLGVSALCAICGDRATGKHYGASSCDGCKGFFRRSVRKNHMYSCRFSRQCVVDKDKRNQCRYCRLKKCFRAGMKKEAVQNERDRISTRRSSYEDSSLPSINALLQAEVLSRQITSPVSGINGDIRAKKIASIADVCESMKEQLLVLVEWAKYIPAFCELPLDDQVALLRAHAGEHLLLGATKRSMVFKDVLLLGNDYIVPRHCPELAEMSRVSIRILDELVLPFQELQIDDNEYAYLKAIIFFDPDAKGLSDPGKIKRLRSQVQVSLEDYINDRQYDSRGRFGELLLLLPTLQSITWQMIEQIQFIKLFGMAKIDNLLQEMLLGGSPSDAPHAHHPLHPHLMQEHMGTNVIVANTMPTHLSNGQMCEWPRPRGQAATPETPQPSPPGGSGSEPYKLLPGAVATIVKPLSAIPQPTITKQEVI
# ALR inh – blocks human ALR sulfhydryl oxidase activity. AID 485317. hit rate 3.8% among 290,000. P55789. inhibition, % (test concentration not listed). purified ALR, DTT oxidation, H2O2 HRP-luminol luminescence;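 active = mean and each replicate at 75% or more; inconclusive = only one of the two met; inactive = neither met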;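 also: stock transfer was 7.5 nL into about 7.5 µL; 0% = neutral wells and 100% = wells with inactivated enzyme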
# Target sequence (P55789 whole entry, looked up): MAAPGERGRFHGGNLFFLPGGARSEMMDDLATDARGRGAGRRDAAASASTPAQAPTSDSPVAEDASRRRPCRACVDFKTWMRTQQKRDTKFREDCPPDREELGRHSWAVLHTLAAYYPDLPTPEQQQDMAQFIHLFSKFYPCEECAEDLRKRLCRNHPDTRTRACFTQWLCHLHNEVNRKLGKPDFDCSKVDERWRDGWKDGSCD
# LANA-H2A inh – blocks KSHV LANA binding to histone H2A/H2B; Q9QR71; cell-free LANA-H2A/H2B peptide, fluorescence polarization; inhibition, % (concentration not given with the values); hit rate 0.6% among 320,000; AID 2629; in the data active = inhibition mostly above about 10%, no sharp cut-off; inactive = mostly below about 6.7%;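 also: stock transfer was 7.5 nL into about 10 µL; 0% = median of vehicle wells and 100% = median of positive control wells; one replicate is shown; the record names a cut of 25% in any replicate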
# * = called active by the depositor; ? = inconclusive; / = no result given; & = joins results of further samples. These rows are one share of the data (hit frequency here may not be typical).
SMILES,Vif TR-FRET,Calb FLC,Beta2AR agonist,RanGTP-Impb inh,HNF4A DNA FP,ALR inh,LANA-H2A inh
NCC(O)c1ccc(O)cc1 (configuration not stated),/,10,-4,-2.5,0.9,4,-3.3
CSc1ccccc1C(=O)C1CCCN(Cc2cccc(C)n2)C1 (configuration not stated),-1%,3,4,2.9,0.1,9,7.6
Cc1ncc(CNC(=O)N(CCCl)N=O)c(N)n1,/,/,-2,/,2.1,-36,1.5
COC(=O)C1=C(N)Oc2c(c(=O)oc3ccccc23)[C@]12C(=O)N(C)c1ccccc12,-3%,-7,5,-2.5,3.4,-7,3.6
CCS(=O)(=O)N1CCCC(C(=O)N2CCC3(CC2)OCCO3)C1 (configuration not stated),-5%,-1,3,4.5,1.2,/,-1.9
COc1ccccc1N1C(=O)NC(=O)/C(=C/c2ccc([N+](=O)[O-])s2)C1=O,6.9µM*,6,9,-2.2,/,/,2.0
COC(=O)C1=C(c2cccc(OC)c2OC)C[C@@H]2CC[C@H]1N2C(=O)NC(C)C,/,-6,-3,3.1,0.4,-14,1.8
COc1ccc(OC)c(C2=NOC(C(=O)N3CCC4(CC3)OCCO4)C2)c1 (configuration not stated),6%,42,7,?,6.6,-1,-0.3
Cc1ccc(-c2cc(C(=O)N3CCC4(CC3)OCCO4)no2)cc1,/,-4,2,0.7,-4.0,7,1.9
COc1ccc2nc3oc(C(=O)N4CCC5(CC4)OCCO5)cc3cc2c1,/,4,2,-0.5,0.0,-21,-0.2
COC(=O)C1=C(c2ccc(F)cc2F)C[C@@H]2CC[C@H]1N2C(=O)NCCOc1ccc(OC)cc1,/,/,6,/,0.0,19,-0.5
C=CCN1C(=O)c2ccccc2Sc2ccc(C(=O)N3CCC4(CC3)OCCO4)cc21,-4%,-16,-13,?,-2.2,4,2.0
Fc1cccc(F)c1CN1CCN(c2ccc(Cl)cc2)CC1,-5%,-9,7,1.6,0.8,16,-0.7
CCOP(=O)(OCC)C(NS(=O)(=O)c1ccccc1)C(Cl)(Cl)Cl (configuration not stated),-8%,3,-1,1.2,-4.2,1,-0.6
S=C(N1CCCCCC1)N1CC1,6%,/,5,/,2.2,/,/
Cc1ccc(O)c(CN2CCN(c3ccccc3)CC2)c1,?,-13,4,2.5,2.2,33,-9.1
CC(c1ccc(F)cc1)n1cc(C(=O)NCc2ccc3c(c2)OCO3)nn1 (configuration not stated),1%,-45,-2,-2.6,2.3,-1,1.7
CNC(=O)Oc1cc2c(cc1C(C)(C)C)CCC2,-6%,/,-4,/,3.9,/,/
CN(C(=O)Oc1ccc(F)cc1)c1ccccc1,1%,-4,0,-5.7,-1.9,-14,0.8
CCCCNC(=O)Nc1ccc(C(O)(C(=O)OC)C(F)(F)F)cc1 (configuration not stated),5%,9,14,2.6,0.7,3,1.3
CN1C(=O)N(C)C(=O)C2(Cc3ccccc3N3CCCC32)C1=O (configuration not stated),18%,-25,4,3.5,-3.3,-4,-1.3
Cc1cccc(Cn2cc(C=O)c3ccccc32)c1,-2%,-13,-12,-0.2,2.2,-5,0.1
COc1cc2c(cc1OC)C(C(=O)NC(C)C)C1CCCCN1C2=O (configuration not stated),/,-9,-9,?,0.1,/,4.4
O=C(c1ccco1)c1cn(Cc2ccccc2Cl)c2ccccc12,-11%,32,-3,-1.3,0.8,-7,0.3
CC[N+](CC)(CC)CCCCCCCCCC[N+](CC)(CC)CC,0%,-5,5,-5.6,2.7,-2,1.7

# Given with tabs: part of the list above.
Structure	Vif TR-FRET	Calb FLC	Beta2AR agonist	RanGTP-Impb inh	HNF4A DNA FP	ALR inh	LANA-H2A inh
S=C(N1CCCCCC1)N1CC1	6%	/	5	/	2.2	/	/
Cc1ccc(O)c(CN2CCN(c3ccccc3)CC2)c1	?	-13	4	2.5	2.2	33	-9.1
CC(c1ccc(F)cc1)n1cc(C(=O)NCc2ccc3c(c2)OCO3)nn1 (configuration not stated)	1%	-45	-2	-2.6	2.3	-1	1.7

# Additional records:
SMILES,Vif TR-FRET,Calb FLC,Beta2AR agonist,RanGTP-Impb inh,HNF4A DNA FP,ALR inh,LANA-H2A inh
O=C(Nc1ccccc1OC(=O)N1CCOCC1)N1CCOCC1,11%,-6,3,-4.5,-0.9,-2,-1.5
CC[C@H]1CC2CN3CCc4c([nH]c5cc(OC)ccc45)[C@](C(=O)OC)(C2)[C@H]13,/,4,/,4.5,5.8,60,-4.8
CCCC1=C(C(=O)OCC)C2(C(=O)Nc3ccccc32)C(C#N)=C(N)O1 (configuration not stated),-5%,-10,1,?,1.9,-5,0.5
CCOC(=O)c1c(C)n(Cc2ccco2)c2ccc(OC)cc12,4%,-10,-1,2.6,-3.4,-20,0.0
CCOC(=O)c1sc(/N=C/c2c(O)n(-c3cccc(C)c3)c(=O)[nH]c2=O)c(C#N)c1C,32%,-4,0,-1.4,1.6,12,-4.6
CCCCn1c(NS(=O)(=O)c2ccccc2)c(C(=O)OCC)c2nc3ccccc3nc21,/,/,13,85*,1.2,5,-5.1
O=C(O)c1cccc2nc3ccccc3nc12,-1%,45,-1,0.0,0.5,23,-0.1
COc1ccc(CCn2c(O)c(C=NCCCO)c(=O)[nH]c2=O)cc1OC,3%,-2,8,5.8,3.0,-2,-0.9
CC/C(=N\Nc1ccccc1)c1c(O)[nH]c(=O)[nH]c1=O,-2%,4,9,0.0,6.8,-6,-5.9
COC(=O)C1=C(c2ccc(C(C)=O)cc2)C[C@@H]2CC[C@H]1N2C(=O)NCCNC(C)=O,/,/,6,/,-0.5,4,2.5
Nc1ccc(Sc2ccc(N)cc2)cc1,-2%,/,-3,/,1.4,/,/
COc1cc2c(c(OC)c1O)-c1ccc(OC)c(=O)cc1C(NC(=O)C(F)(F)F)CC2 (configuration not stated),2%,/,5,/,3.2,/,/
Fc1cccc(F)c1-c1nc(-c2ccc(Cl)cc2)no1,9%,-4,-8,10,-1.1,-6,-7.7
CN(C)C(Cc1ccccc1)C(=O)c1ccc(-c2ccccc2)cc1 (configuration not stated),4%,-11,32,6.0,4.2,5,-2.6
CCOC(=O)C1C(=O)N(C)C2(C)CC1c1ccccc1O2 (configuration not stated),-10%,-2,2,-5.0,0.8,-12,1.4
CCCNC(=O)N1[C@H]2CC[C@@H]1C(C(=O)OC)=C(c1ccc(S(C)(=O)=O)cc1)C2,/,-1,-3,7.4,0.2,0,1.1
CC12CCC3c4ccc(OC(=O)N(CCCl)CCCl)cc4CCC3C1CCC2O (configuration not stated),-6%,/,8,/,4.8,/,/
O=c1c2ccccc2nc(CNc2ccccc2)n1-c1ccccc1,-4%,3,4,-0.9,2.8,-6,-0.6
CNCCc1nc(N)n[nH]1,-2%,-1,0,1.0,1.1,/,-1.6
COc1cc(CN2CCN(C(=O)COc3ccccc3)CC2)cc(OC)c1OC,6%,-8,-5,-1.5,0.4,-5,-1.5
COc1ccc(C2C(C(=O)N3CCC4(CC3)OCCO4)CC(=O)N2c2ccc(OC)cc2)cc1 (configuration not stated),9%,/,-7,/,0.4,/,-0.7
CCCCCCn1c(N)c(C(=O)NCCN2CCOCC2)c2nc3ccccc3nc21,2%,7,-9,70*,2.2,-14,-1.7
CCOC(=O)N1CCC(NC(=O)CCc2nc(C3=CCN(C)CC3)no2)CC1,4%&3%,-5,1&4,1.5,0.2&-3.2,-8,0.7
COC(=O)C1=C(c2ccc(F)cc2F)C[C@@H]2CC[C@H]1N2C(=O)NCc1ccco1,/,/,-2,/,0.0,3,-0.7
COC(=O)C1=C(c2ccc(-c3ccccc3)c(F)c2)C[C@@H]2CC[C@H]1N2C(=O)NC(C)C,/,/,-2,/,0.2,0,1.6

# Among those listed so far, these contain a Cl atom:
SMILES,Vif TR-FRET,Calb FLC,Beta2AR agonist,RanGTP-Impb inh,HNF4A DNA FP,ALR inh,LANA-H2A inh
Cc1ncc(CNC(=O)N(CCCl)N=O)c(N)n1,/,/,-2,/,2.1,-36,1.5
Fc1cccc(F)c1CN1CCN(c2ccc(Cl)cc2)CC1,-5%,-9,7,1.6,0.8,16,-0.7
CCOP(=O)(OCC)C(NS(=O)(=O)c1ccccc1)C(Cl)(Cl)Cl (configuration not stated),-8%,3,-1,1.2,-4.2,1,-0.6
O=C(c1ccco1)c1cn(Cc2ccccc2Cl)c2ccccc12,-11%,32,-3,-1.3,0.8,-7,0.3
Fc1cccc(F)c1-c1nc(-c2ccc(Cl)cc2)no1,9%,-4,-8,10,-1.1,-6,-7.7
CC12CCC3c4ccc(OC(=O)N(CCCl)CCCl)cc4CCC3C1CCC2O (configuration not stated),-6%,/,8,/,4.8,/,/

# Continued:
SMILES,Vif TR-FRET,Calb FLC,Beta2AR agonist,RanGTP-Impb inh,HNF4A DNA FP,ALR inh,LANA-H2A inh
Cc1nn(C)cc1/C=C1/CC2C3CC=C4CC(O)CCC4(C)C3CCC2(C)C1=O (configuration not stated),/,-8,3,6.1,1.4,/,3.8
COC(=O)C1=C(c2c(C)noc2C)C[C@@H]2CC[C@H]1N2C(=O)NC1CC1,/,/,-5,/,-0.3,3,-6.1
Cc1ccc(-n2c(O)c(/C=N/NC(=O)c3ccncc3)c(=O)[nH]c2=O)cc1,/,3,-6,-0.5,19,4,-3.8
COC(=O)C(Cc1ccc(N(CCCl)CCCl)cc1)N=Cc1ccccc1O (configuration not stated),/,7,5,?,0.5,/,13
CC(=O)OCC(=O)[C@H]1CC[C@H]2[C@@H]3CC[C@H]4C[C@H](O)CC[C@]4(C)[C@H]3C(=O)C[C@]12C,/,/,0,/,2.0,-25,0.4
COc1cccc(NP(=O)(Oc2ccccc2Cl)Oc2ccccc2Cl)c1,/,25,7,0.6,-4.2,/,/
CC(C(=O)Nc1ccc(Br)cc1C(=O)c1ccccc1)N1CCCCC1 (configuration not stated),6%,21,-1,3.6,0.7,-10,-0.5
FC(F)(F)c1ccc(CN2CCNCC2)cc1,-5%,-19,0,-3.4,-4.1,-4,-5.1
Cc1ccc(C2(O)CCN3CCCCC32)cc1 (configuration not stated),0%,6,-5,6.8,0.6,0,6.1
Cc1ccc(Cn2nnnc2CN2CCC(n3nnc4ccccc43)CC2)cc1,-1%,23,-15,-2.4,-0.3,-29,3.8
c1cncc(CNC2CCCC2)c1,5%,-19,1,3.6,0.3,-4,0.7
C[C@]12CCC3C(CC[C@H]4CC(=O)CC[C@]34C)C1CCC2=O (some centres not stated),-6%,/,-12,/,-1.4,1,1.6
O=C(c1ccccc1)c1cn(CC(=O)N2CCOCC2)c2ccccc12,4%,/,3,-3.3,-0.1,-12,-4.0
CN1C(CC(O)c2ccccc2)CCCC1CC(O)c1ccccc1 (configuration not stated),/,/,-1,/,0.2,9,-15
Cc1ccc(C2(O)CN3CCC2CC3)cc1 (configuration not stated),-4%,-1,-1,1.3,0.7,-29,4.2
O=c1[nH]c(O)c(C=Nc2ccc(F)c(Cl)c2)c(=O)[nH]1,2%,1,-20,3.6,2.5,-8,-1.9
COC(=O)C1=C(c2ccc(C(C)=O)cc2)C[C@@H]2CC[C@H]1N2C(=O)NC(C)C,/,/,5,/,0.7,3,2.1
C=CCn1c(O)c(C(C)=Nc2cccc(C(F)(F)F)c2)c(=O)[nH]c1=O,?,-2,-14,-1.0,-6.6,2,1.0
Oc1ccccc1CN(CCc1ccccc1)Cc1ccccc1,8%,7,3,0.3,2.3,4,-0.8
CP(=O)(O)CCCN,-6%,-6,9,-0.1,2.4,-11,-0.7
CCN1C[C@]2(COC)CC[C@H](O)[C@]34C1[C@](O)([C@@H](OC)[C@H]23)[C@@]1(O)C[C@H](OC)[C@H]2C[C@@H]4[C@@H]1[C@H]2OC,/,/,-9,/,-0.1,-4,2.5
O=C(Nc1ccccc1)c1c(O)[nH]c(=S)[nH]c1=O,/,-1,1,-0.2,-0.1,5,-1.8

# High-throughput results (PubChem BioAssay)
